Sa ugtP lethal = kills S. aureus RN4220 lacking UgtP | S. aureus RN4220 ugtP deletion, OD600 growth, 16 h; some inactives read as strong as hits | growth inhibition, % (test concentration not listed) | 330,000 tested, 0.54% active | AID 1259309;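 active = z-score under -3 and OD600 up to 0.15 on both plates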;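 note: plate controls were untreated wells for no effect and antibiotic for full effect; wells of about 80 µL received 100 nL stock; the first replicate is given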
Mtb hypoxia inh = Mtb hypoxia fluorescent reporter inhibition | M. tuberculosis hypoxia-regulated fluorescent reporter, fluorescence | fluorescence inhibition, % (test concentration not listed) | 300,000 tested, 0.1% active | AID 1159583;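 active = 35 to 45% if threefold the growth effect, above 45% if 1.5-fold the growth effect; inactive = the rest, general growth blockers included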;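 note: wells of about 50 µL received 100 nL stock; 0% = vehicle wells and 100% = reference inhibitor wells; whole bacteria with a GFP reporter of the hypoxia response; strong numbers were not always called active; many hits fall short of the cut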
RN4220 kill = kills Staphylococcus aureus RN4220 | S. aureus RN4220 growth, OD600, 16 h | inhibition, % (test concentration not listed) | 330,000 tested, 0.33% active;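 active = z-score of -3 or lower and OD600 up to 0.18 on both plates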;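 note: plate controls were untreated cells for no effect and reference antibiotic for full effect; stock transfer was 100 nL into about 80 µL; one replicate is shown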
BJeLR viability = kills HRASV12-expressing BJeLR cells | BJeLR (HRASV12) viability, CellTiter-Glo ATP luminescence, 48 h; reference of the scale not given here | inhibition, % (test concentration not listed) | 300,000 tested, 0.17% active;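 active = replicate mean above 50%; inconclusive = above 50% but judged a plate artefact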;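 note: 50 nL library stock added to about 25 µL; numbers are from one replicate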
Autofluor counter = flagged as autofluorescent in microsphere protease counterscreen | compound autofluorescence counterscreen, microsphere flow cytometry; active compounds read high | fluorescence intensity (test concentration not listed) | 360,000 tested, 3.1% active;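 active = at least 3 SD above the mean of all compounds, about 16000 in these data; inconclusive = too few beads counted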;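 note: 100 nL of 1 mM stock went into each well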
PrP 5UTR inh = suppresses PrP 5' UTR mRNA reporter expression; cell-based PrP 5' UTR mRNA reporter, plate reader; AID 488862; 340,000 tested, 0.35% active; inhibition, % (concentration not given with the values);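 active = every replicate at 50% or more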;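 note: 0 = median of the neutral control wells; tested in H4 reporter cells; numbers are from one replicate; inactives centre near -14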
Mtb hypoxia inh growth = recorded beside Mtb hypoxia inh, whose call it bears; growth inhibition, %; measured here: M. tuberculosis growth (absorbance);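 0% = vehicle and 100% = reference antibiotic; read after six days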
* marks the source's active call; other numbers are inactive results; ? = inconclusive; nt = no result given.

SMILES	Sa ugtP lethal	Mtb hypoxia inh	Mtb hypoxia inh growth	RN4220 kill	BJeLR viability	Autofluor counter	PrP 5UTR inh
O=C(Nc1ccc(F)cc1Cl)C1=COCCO1	8	-1	1	4.2	5	4865	-15
O=C(NCc1ccc2c(c1)OCO2)c1ccc(S(=O)(=O)C(F)F)cc1	3	12	5	2.8	5	4268	-19
CCOCCN1CCN(C(=O)CN2CCCC2=O)CC1	12	9	4	1.4	2	2749	-22
CCOc1ccc(C2/C(=C(\O)c3ccc(OC)c(OC)c3)C(=O)C(=O)N2c2cc(C)on2)cc1OC (stereo not given)	nt	nt	nt	nt	2	2474	-7
O=C(NN=Cc1ccc2ncccc2c1)c1ccco1	-4	0	-16	3.6	nt	nt	nt
CCCCCCCC(=O)Nc1cc(C(=O)NCCC)ccc1N1CCC2(CC1)CC(c1ccccc1)=NO2	-25	4	4	-2.6	2	3778	-16
CC(C)c1cc(C(N)=O)c(NC(=O)C2CCC2)s1	0	10	14	4.7	-12	21955*	-9
CC1=Nc2cc(C(=O)O)ccc2Sc2ccc(Br)cc21	22	2	-4	18	nt	5532	-5
CCCCN(C)Cc1c(C)[nH]c2ccccc2c1=O	5	9	3	2.1	-7	4163	-88
Cc1cc(C)c2sc(N(CCCN(C)C)C(=O)c3ccc(S(=O)(=O)N4CCc5ccccc5C4)cc3)nc2c1	nt	nt	nt	nt	39	6404	2
Fc1ccc(NC(=S)NCc2ccccc2Cl)cc1	1	6	10	-1.2	12	2544	-36
COc1cccc(OC)c1C(=O)Nc1nc2ccc([N+](=O)[O-])cc2s1	-2	6	-3	2.5	-8	2539	-8
Cc1nn(-c2ccc(C(F)(F)F)cn2)c(C)c1Oc1ccccc1O	28	12	6	6.2	3	3812	-21
C#CCn1c(=NC(=O)c2ccc(Br)s2)sc2cccc(OC)c21	51	10	18	-26	-3	5559	-68
COc1cc(/C=C/CN2CCN(CCC(C)C)C(CCO)C2)ccc1O (stereo not given)	15	5	6	6.9	5	4285	-10
c1ccc(-c2cc(-c3ccc(N4CCOCC4)cc3)nc3ccccc23)cc1	18	3	8	2.3	-9	2659	7
COc1ccc(CN2C(=O)CCC2(C)C(=O)NC2CCCCC2)c(OC)c1 (stereo not given)	nt	nt	nt	nt	-13	15579	-46
CCOC(=O)c1sc2nccc(N(C)C)c2c1N=CN(C)C	-11	nt	nt	-4.5	-4	4582	-21
O=C(CCCn1c(=O)c2sccc2n(Cc2cc(=O)n3ccccc3n2)c1=O)NCc1ccco1	-10	nt	nt	4.6	0	5004	-7
CC(O)CNc1nc(NCc2ccccc2)c2cnn(C)c2n1 (stereo not given)	1	0	-3	3.5	-5	5322	3
C/C(CCc1c[nH]c2ccccc12)=N\O	nt	nt	nt	nt	3	10029	-15
CCOC(=O)/C(=C/c1c[nH]c2ccccc12)NC(C)=O	3	7	9	7.9	2	19612*	-20
CCc1cccc2c(C(=O)CN3C(=O)NC4(CCc5ccccc54)C3=O)c[nH]c12 (stereo not given)	-10	-8	-2	-5.1	10	3619	-28
CCC(C)NC(=O)CN1c2cccc3cccc(c23)S1(=O)=O (stereo not given)	6	9	5	3.1	-3	2833	-8
N#CCCN(C(=O)COC(=O)COc1ccc(Cl)cc1)c1ccccc1	4	11	3	4.3	-4	2519	-14
Cc1ccc(-n2cccc2/C=C2/C(=N)N3C(=NC2=O)SN=C3S(C)(=O)=O)cc1	5	-22	1	17	-2	2073	-28
CC(=O)Nc1ccc(OCC=C(Cl)Cl)cc1	3	5	14	3.7	-3	6420	-9
Cc1cccc(C)c1N(CC(=O)Nc1cc(Cl)ccc1Oc1ccccc1)S(C)(=O)=O	-8	3	-4	-0.1	-14	2405	-11
CCCCOc1ccc(OCCNS(=O)(=O)N(C)C)cc1	3	5	3	4.6	-6	8063	-13
CCOC(=O)c1sc(=S)n(C)c1NC(=O)c1ccc(F)cc1	5	-4	-5	4.8	5	10540	-5
CC(=O)Nc1ccccc1-c1nc2ccccc2nc1OCC(=O)c1ccc(Br)cc1	1	3	11	2.5	7	11959	-9
CC(=NNC(=O)Cc1ccc(Cl)cc1)c1ccccn1	-6	16	9	12	nt	nt	nt
Cc1cccc(Cl)c1NC(=O)N1CCCN(c2nc3ccc(Cl)cc3s2)CC1	-7	3	4	1.0	2	4045	-16
CCN(CC)CCNC(=O)Cc1nn(CC)c(=O)c2ccccc12	6	15	3	2.8	-2	10982	1
CCOC(=O)c1ccc2c(c1)n(CCO)c(C)[n+]2CC	1	nt	nt	-2.1	7	4492	-7
CC(CO)Nc1nc(SCc2ccccc2)nc2sc3c(c12)CCC3 (stereo not given)	-7	4	3	0.4	-13	4363	-8
Cc1ccc(S(=O)(=O)N(C)C)cc1NC(=O)CSc1ncn[nH]1	-1	3	-1	-0.4	2	6065	-1
COc1ccc(CCNC(=O)c2cc([N+](=O)[O-])ccc2N2CCOCC2)cc1	-1	-4	9	1.4	7	?	-11
CC(C)[C@H](NS(=O)(=O)/C=C/c1ccccc1)C(=O)OCC(=O)NC(N)=O	10	2	-2	0.9	-20	3421	-14
Cc1ccccc1C(OCC(O)CN1CCC(C(N)=O)CC1)c1ccccc1 (stereo not given)	1	12	3	2.1	-2	3808	-29
CSc1cccc(NC(=O)CCNS(=O)(=O)c2ccc3[nH]c(=O)oc3c2)c1	1	2	8	-1.9	4	6024	3
O=C(O)[C@H]1CC=C[C@H]2CCN(Cc3ccc(Cl)c(Cl)c3)C(=O)[C@@H]12	5	15	14	2.1	nt	2841	40
Cc1ccccc1C(=O)c1cccn1CC(=O)NCc1ccco1	4	9	10	8.3	-2	2931	-23
CCOc1cc(N2CCOCC2)c(OCC)cc1NC(=O)CN1C(=O)C2C3C=CC(C3)C2C1=O (stereo not given)	2	6	0	0.9	0	4739	-34
CN1CCN(C(=O)c2ccc(CN(c3ccccc3)S(=O)(=O)c3ccccc3)cc2)CC1	-16	-1	-8	6.0	-1	3945	-45
O=C(CCCn1c(=S)[nH]c2ccsc2c1=O)NC1CCCCC1	5	4	1	6.2	-5	5325	-25
CN1CCN(Cc2c(O)ccc3c2oc(=O)c2ccccc23)CC1	-1	9	1	4.1	4	3022	-23
CCOc1cc2[nH]c(=O)n(Cc3ccccc3)c(=O)c2cc1OCC	6	18	7	3.2	0	4220	-25
CC(=O)c1sc2nc(-c3ccccc3)cc(C)c2c1N	-1	13	9	1.4	-2	nt	-5
O=C(N/N=C/c1cccn1-c1cccc(C(=O)O)c1)Nc1ccccc1	nt	nt	nt	nt	8	2264	7
COc1ccc(N2C(=O)CSC23C(=O)N2CCCc4cccc3c42)cc1 (stereo not given)	-2	-9	1	0.7	-1	5932	0
c1ccc2cc(N3CCCCC3)ccc2c1	9	8	9	15	nt	3609	-18
CC(=O)N1CCN(S(=O)(=O)c2cccc(C(=O)Nc3ccc(F)c(F)c3)c2)CC1	8	2	-2	3.2	-2	3555	-27
COC(=S)Nc1cccc(C(F)(F)F)c1	-2	-8	3	3.2	-3	nt	-27
Cc1ccc(S(=O)(=O)ON=C2CCN(S(=O)(=O)c3ccccc3)CC2)cc1	13	20	-42	3.3	-5	3951	-31
CC1CC(C)(C)NC(=S)S1 (stereo not given)	2	nt	nt	1.6	1	4071	-8
CC(=O)c1ccc(OCCCC(=O)OCC(=O)N2CCN(S(=O)(=O)c3ccc(C)cc3C)CC2)cc1	7	9	4	5.7	nt	3701	-8
CCOC(=O)C1=C(c2ccccc2)c2ccccc2OC1C(=O)OCC (stereo not given)	89*	6	6	4.4	nt	3838	-30
O=C(NCC(=O)N(c1ccccc1)C(C(=O)NC1CCCC1)c1ccncc1)c1ccco1 (stereo not given)	4	-7	-1	5.7	-2	2419	-12
COc1ccc(S(=O)(=O)n2nc(OC(=O)c3cccs3)cc2NC(=O)c2cccs2)cc1	-1	11	18	4.8	-11	3618	-28

An excerpt from above in order of formula weight, low to high.
SMILES	Sa ugtP lethal	Mtb hypoxia inh	Mtb hypoxia inh growth	RN4220 kill	BJeLR viability	Autofluor counter	PrP 5UTR inh
COC(=S)Nc1cccc(C(F)(F)F)c1	-2	-8	3	3.2	-3	nt	-27
CN1CCN(Cc2c(O)ccc3c2oc(=O)c2ccccc23)CC1	-1	9	1	4.1	4	3022	-23
CCOC(=O)C1=C(c2ccccc2)c2ccccc2OC1C(=O)OCC (stereo not given)	89*	6	6	4.4	nt	3838	-30
CC(=O)N1CCN(S(=O)(=O)c2cccc(C(=O)Nc3ccc(F)c(F)c3)c2)CC1	8	2	-2	3.2	-2	3555	-27
COc1ccc(S(=O)(=O)n2nc(OC(=O)c3cccs3)cc2NC(=O)c2cccs2)cc1	-1	11	18	4.8	-11	3618	-28
CC(=O)c1ccc(OCCCC(=O)OCC(=O)N2CCN(S(=O)(=O)c3ccc(C)cc3C)CC2)cc1	7	9	4	5.7	nt	3701	-8

Later entries
SMILES	Sa ugtP lethal	Mtb hypoxia inh	Mtb hypoxia inh growth	RN4220 kill	BJeLR viability	Autofluor counter	PrP 5UTR inh
CC1CC1C(=O)Nc1nc(-c2ccccn2)cs1 (stereo not given)	-5	nt	nt	6.5	1	4713	-21
O=C(O)/C=C\C(=O)NCc1ccccc1	1	7	4	2.7	0	8207	-14
O=C1C2CC(O)CN2C(=O)N1c1ccccc1 (stereo not given)	5	5	7	2.7	-2	?	-6
COc1ccc(CCNC(=O)C2CCCN(c3ncccn3)C2)cc1 (stereo not given)	4	9	11	1.6	-13	4142	35
Cc1cccc(C(=O)NCC(=O)NC2CCC(C)CC2)c1 (stereo not given)	4	-12	4	-0.9	3	nt	-22
Cc1ccc2c(c1)CC(C)N2S(=O)(=O)c1nnc(NC(=O)CC(C)C)s1 (stereo not given)	-14	8	8	9.5	3	5398	-12
CCOc1ccccc1N1CC(C(=O)Nc2cc(Cl)ccc2-n2cncn2)CC1=O (stereo not given)	3	0	6	-1.2	2	6156	-26
O=C(c1ccco1)N1CCCC(c2nc3c(nnn3Cc3cccc(Cl)c3)c(=O)[nH]2)C1 (stereo not given)	-1	-11	9	-0.8	-4	6247	4
S=C(N/N=C/c1ccc2ncccc2c1)Nc1ccccc1	nt	nt	nt	nt	34	4326	-37
Cc1cc(C)c(S(=O)(=O)N(C)CC(=O)NCc2ccncc2)c(C)c1	nt	nt	nt	nt	-1	3452	-13
S=C1NCN(C2CCCCC2)CN1CCc1ccccc1	1	6	2	2.2	0	3963	nt
CC(C)C[C@H](N)C(=O)N1CCC(C(=O)N[C@H](C(=O)NC(C)c2ccccc2)C(C)C)CC1 (stereo not given in full)	-7	nt	nt	1.9	1	4220	-9
Cc1ccc(NC(=O)Cc2nnc(SCC(=O)Nc3nncs3)n2C)cc1	16	9	-10	2.8	1	3754	-17
CN(C)S(=O)(=O)c1ccc(C(=O)NCCSc2ccccc2)cc1	10	nt	nt	5.1	2	3183	-65
CCOC1Cc2ccccc2N(C(N)=O)c2ccccc21 (stereo not given)	-5	-2	-3	2.4	-5	10832	-14
O=C(Nc1c2c(nn1-c1ccc(F)cc1)CS(=O)(=O)C2)c1ccc(Br)o1	-5	-6	7	1.6	7	5366	-12
COCCCNc1nc(N)c([N+](=O)[O-])c(NC2CCCCC2)n1	5	7	8	4.7	8	3093	-16
Clc1ccc(-n2ncc3c(NCc4cccs4)ncnc32)cc1	-4	15	10	-6.9	-7	9452	-31
CC12CCC(C[N+](C)(C)C1)C2(C)C (stereo not given)	6	12	0	5.9	-8	4255	-30
CCCCCn1c(SCCC(C)C)nc2c1c(=O)[nH]c(=O)n2C	-11	nt	nt	3.6	-9	2395	-16
N#CCN=C(c1ccccc1)c1ccccc1	7	1	4	7.4	nt	3897	-3
CCc1nnc(NC(=O)c2ccc(Cl)c(S(=O)(=O)N3CCc4ccccc43)c2)s1	3	nt	nt	18	-1	3800	-18
CCOc1cc(C(=O)Nc2cccc(OCC(=O)N3CCOCC3)c2)cc(OCC)c1OCC	-5	-13	-11	-1.0	-3	4119	1
CSCC[C@H](NC(=O)c1ccc2ccccc2c1)C(=O)N1CCC2(CC1)NCCc1[nH]cnc12	8	8	9	1.8	-1	5854	-27
COCCN(C(=O)c1ccc(N2CCCC2=O)cc1)c1c(N)n(Cc2ccccc2)c(=O)[nH]c1=O	0	-1	0	3.8	nt	2691	4
COc1cc2c(cc1OC)C1(CCCC1)C(N)=C2C#N	-9	nt	nt	-1.7	nt	4868	-7
